Assay outcomes: PubChem, National Center for Advancing Translational Sciences (NCATS)
SARS PLpro yeast: qHTS of Yeast-based Assay for SARS-CoV PLP; S. cerevisiae expressing SARS-CoV PLpro, growth rescue; control for the full effect not named in the record; Potency, µM (series often up to 32.9 µM), without a hit: at the top dose activity, positive = growth rescue; 0.19% of 330,000 active; AID 485353, 2010; active means well fitted rising curve with a large enough effect; inconclusive means small, poorly fitted or top-dose-only effect; inactive means no such curve, though single readings can be large or run the other way; also: 0% is about no effect; nearly all actives have a fitted effect of over 55% in size; growth read by luminescence after 48 h
RE007 growth inh: qHTS Assay for Inhibitors of the HIV-1 protein Vpr. S. pombe RE007 Vpr strain, BacTiter-Glo ATP luminescence, 24 h; control for the full effect not named in the record. Potency, µM (doses to about 92.2 µM), without a hit: top-dose activity change, negative = less growth. 0.21% of 360,000 active. AID 651644, 2012; active = well fitted falling curve with a large enough effect; inconclusive = small, poorly fitted or top-dose-only effect; inactive = no such curve, though single readings can be large or run the other way;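 also: % is scaled to controls: 0 for no effect and ±100 for the full control effect; nearly all actives have a fitted effect of over 50% in size; the assay follows cell death caused by Vpr and the record does not say whether a fall means rescue or toxicity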
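Fission yeast RE007 carrying one integrated HIV-1 vpr copy, seeded at OD 0.01 in PMG+AL medium with 23 nL pinned compound. Grown 24 h at 30 degrees; viability read by BacTiter-Glo luminescence after 5 min.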
2A StopGo: High Throughput Screening for Foot and Mouth Disease Virus Antivirals; 1.2% of 410,000 active; Potency, µM (highest dose often 57.9 µM), without a hit: at the highest dose signal change, negative = less light; human cells with a luciferase reporter of 2A StopGo recoding; control for the full effect not named in the record; active = well fitted falling curve with a large enough effect; inconclusive = small, poorly fitted or top-dose-only effect; inactive = no such curve, though single readings can be large or run the other way; tested in HEK293T cells; also: % is scaled to controls: 0 for no effect and ±100 for the full control effect; nearly all actives have a fitted effect of over 45% in size; luciferase light after 4 h
* = called active by the depositor; ? = inconclusive; & = joins results of further samples; [ ] = dose if it differs, or a comment. Potency is read from the fitted curve at half-maximal effect.

SMILES	SARS PLpro yeast	RE007 growth inh	2A StopGo
C[C@H](CO)N1C[C@H](C)[C@@H](CN(C)Cc2ccc(C(=O)O)cc2)Oc2ccc(NC(=O)Cn3cnnn3)cc2C1=O	-2%	6%	-6%
CSc1nc(N)nc2c1ncn2CC(=O)NCCNc1ccc([N+](=O)[O-])cn1	7%	9%	-24%
CN(CC(=O)Nc1c(Cl)cccc1Cl)C(=O)Cc1cccs1	-2%	7%	-4%
O=C1CCc2cc(S(=O)(=O)NC(C(=O)N3CCN(c4ccccn4)CC3)c3ccccc3)ccc2N1 (stereo not drawn)	1%	-3%	-17%
Cc1noc(C)c1NC(=O)N(C)C[C@H]1Oc2ccc(NC(=O)NC(C)C)cc2C(=O)N([C@H](C)CO)C[C@H]1C	9%	1%	-6%
Cc1noc(C)c1NC(=O)N(C)C[C@H]1Oc2c(NC(=O)Nc3ccc(C(F)(F)F)cc3)cccc2C(=O)N([C@H](C)CO)C[C@@H]1C	5%	27%	-14%
CCOC(=O)C1=CN(Cc2cccc(-c3ccc(Cl)nc3)c2)S(=O)(=O)N(C)C1C (stereo not drawn)	-5%	-4%	-22%
COCCNC(=S)NCCc1ccc(Cl)cc1Cl	18%	-7%	2%
CC(C)NC(=O)N(C)C[C@@H]1Oc2c(NC(=O)C3CCOCC3)cccc2C(=O)N([C@@H](C)CO)C[C@H]1C	2%	-4%	-8%
N#C/C(=C/c1ccc(-c2ccccc2[N+](=O)[O-])o1)C(N)=O	0%	-3%	0%
O=C(COc1ccc(Br)cc1Cl)N1CCN(c2ncccn2)CC1	2%	22%	-26%
C[C@@H]1COC(=O)[C@H](NC(=O)OCC2c3ccccc3-c3ccccc32)C/C=C\C[C@@H](CC(=O)N[C@@H](CO)Cc2ccccc2)C(=O)N1	3%	-6%	-16%
Cc1cc(N)nc(C)c1C#N	9%	-15%	-5%
C#CCOCCOCCOCCNc1nc(N2CCN(C(=O)CCCCCCCCCCNC(=O)Cn3cc(C[C@@H](C)O)nn3)CC2)nc(N2CCN(C(=O)CCCCCCCCCCNC(=O)[C@@H](CCSC)n3cc(CCO)nn3)CC2)n1	-1%	0%	-25%
O=C(Nc1cc(S(=O)(=O)N2CCOCC2)ccc1O)c1ccc(S(=O)(=O)N2CCCCC2)cc1	-1%	-1%	-8%
C=CC[C@H](CC(=O)NCCO)C(=O)N[C@@H](COC(=O)[C@H](CC=C)CC(=O)OC(C)(C)C)Cc1ccccc1	0%	-17%	-3%
Cc1ccc(S(=O)(=O)N2CCN(C(=O)CCCOc3cccc(C)c3)CC2)cc1	-2%	-3%	-23%
C#CCOCCOCCOCCNc1nc(N2CCN(C(=O)CCCCCCCCCCNC(=O)Cn3cc(C[C@@H](C)O)nn3)CC2)nc(N2CCN(C(=O)CCCCCCCCCCNC(=O)[C@H](CCCCN)n3cc(C[C@@H](C)CC)nn3)CC2)n1	-1%	-2%	?
COC(=O)[C@]1(C)CCC[C@@]2(C)C3CC[C@@]4(C)C[C@]3(CCC21)CC(=O)N4 (stereo partly drawn)	5%	16%	?
CC1CCCN(c2c([N+](=O)[O-])cc(C(=O)O)cc2[N+](=O)[O-])C1 (stereo not drawn)	1%	9%	-5%
CC(C)C(NC(=O)c1c(F)cccc1F)C(=O)NNC(=O)c1ccccc1 (stereo not drawn)	0%	2%	-12%
CC(C)C[C@@]12C(=O)N(c3cccc(Cl)c3)C(=O)N1[C@H](c1ccc(Br)cc1)[C@@H]1C(=O)N(C(C)(C)C)C(=O)[C@@H]12	-5%	11%	-18%
Cc1cc(C)c2nc(NCCCNC(=S)NCCCN(C)C)c(C#N)cc2c1	-5%	-12%	?
CN(C)S(=O)(=O)c1ccc(C(=O)OCC(=O)N2CC3(C)CC2CC(C)(C)C3)cc1 (stereo not drawn)	0%	13%	-25%
CSc1ccc(/C=C(/NC(=O)c2ccccc2)C(=O)N2CCN(C)CC2)cc1	1%	0%	4%
C/[N+]([O-])=C\c1ccc([N+](=O)[O-])o1	-11%	-17%	0%
CC1CCN(C(=O)c2[nH]cnc2C(=O)N2CCN(C(=O)OC(C)(C)C)CC2)CC1	-1%	-2%	-3%
CC(c1ccc(F)cc1)n1cc(C(=O)NCc2ccccn2)nn1 (stereo not drawn)	0%	-3%	5%
CN(C(=O)c1cccc(NC(=O)Cc2ccc([N+](=O)[O-])cc2)c1)C1CCCC1	6%	2%	?
CCN(CC(=O)NCc1cccs1)C(=O)Cc1ccc(C)c(C)c1	?	8%	-7%
Cc1nc2ccc(NC(=O)C3CCCCC3)cc2s1	-2%	-19%	51%[activator]
NC1(C#Cc2ccc3oc(=O)c(-n4cc(C5(O)CCCCC5)nn4)cc3c2)CCCCC1	-2%	-9%	2%
COc1ccc(NC(=O)Cn2c(=O)n(-c3ccc(CC(=O)NCc4ccco4)cc3)c(=O)c3ccccc32)cc1	3%	-4%	-11%
CC(C)C[C@@H](CO)N(Cc1ccccc1)S(=O)(=O)N(Cc1ccccc1)[C@H](CO)CC(C)C	-16%	-2%	?
CC[C@@]1(C(=O)OC)N[C@H](CN(C)C(=O)Nc2ccc(C(F)(F)F)cc2)[C@@H]2C(=O)N(C)C(=O)[C@@H]21	-2%	3%	0%
CC(C)CCSc1nc2[nH]ncc2c(=O)[nH]1	3%	-2%	2%
CCOC(=O)[C@H]1[C@H]2COc3ccccc3[C@@H]2N2C(=O)CN(Cc3ccccc3)C(=O)[C@@]12C	-6%	0%	-7%
CCOC(=O)[C@H]1[C@H]2COc3ccc(OC)cc3[C@@H]2N2C(=O)CN(Cc3ccc(F)cc3)C(=O)[C@@]12C	-5%	0%	-10%
Cc1nc([N+](=O)[O-])cn1CC(=O)c1ccc(Br)cc1	0%	7%	-21%
COc1ccc(C)cc1NC(=O)CN1C(=O)C2CC=CCC2C1=O (stereo not drawn)	-4%	7%	-1%

Profiles, quoted from the list. Values in the order: SARS PLpro yeast	RE007 growth inh	2A StopGo
`COc1ccc(NC(=O)Cn2c(=O)n(-c3ccc(CC(=O)NCc4ccco4)cc3)c(=O)c3ccccc32)cc1` across the screens: 3%	-4%	-11%
`COc1ccc(C)cc1NC(=O)CN1C(=O)C2CC=CCC2C1=O` (stereo not drawn) across the screens: -4%	7%	-1%

Other records follow:
SMILES	SARS PLpro yeast	RE007 growth inh	2A StopGo
CCOC(=O)c1c(C)[nH]c(C)c1C(=O)COC(=O)CSc1ccc(C)cc1	-15%	-13%	-8%
CCS(=O)(=O)c1ccc2oc(SCC(=O)Nc3ccc(OC)cc3)nc2c1	1%	24%	-13%
C[C@@H]1CCCCCCCCC(=O)OCCN[C@H](C)CCCCCCCCC(=O)OCCN[C@H](C)CCCCCCCCC(=O)OCCN1	12%	-7%	-7%
CC1CCc2c(sc(NC(=O)Cn3cnc([N+](=O)[O-])n3)c2C(N)=O)C1 (stereo not drawn)	-1%	-13%	-13%
CSCCC(NC(=O)c1ccco1)C(=O)NCC(C)(C)N1CCOCC1 (stereo not drawn)	1%	-11%	-5%
CCOC(=O)C1=CNS(=O)(=O)NC1c1cccc(O)c1 (stereo not drawn)	19%	-9%	0%
Cc1oc(-c2cccs2)nc1CNC[C@H]1O[C@@H](n2cnc3c(N)ncnc32)[C@H](O)[C@@H]1O	3%	-15%	-25%
CCCCCCSc1ccc([C@H]2N[C@@](CC(C)C)(C(=O)OC)[C@H]3C(=O)N(C)C(=O)[C@@H]23)cc1	1%	28%	-28%
CN1CCN(NC(=O)c2cn(-c3ccccc3)nc2-c2cccs2)CC1	0%	-18%	11%
O=C(/C=C/c1ccc(O)c(O)c1)O[C@@H]1C[C@](O)(C(=O)O)C[C@@H](O)[C@H]1O	-4%	-1%	-20%&-15%
Cc1cccn2c(=O)c3cc(C(=O)N4COCC4(C)C)sc3nc12	2%	6%	3%
O=C(C[N+]12CCC(CC1)C(CO)C2)c1ccc([N+](=O)[O-])cc1 (stereo not drawn)	-2%	10%	4%
CCOc1cccc2sc(N(CCN(CC)CC)C(=O)c3ccc(S(=O)(=O)N4CCCCC4)cc3)nc12	0%	11%	10%
COc1ccc(CCNC(=O)[C@@H](NC(N)=O)C(C)C)cc1	-1%	2%	-10%
COC(=O)C1=C(c2ccc(-c3ccccc3)c(F)c2)C[C@@H]2CC[C@H]1N2C(=O)NC(C)C	3%	11%	?
CC(O/N=C(\N)c1ccccc1)C(=O)Nc1cccc(C(F)(F)F)c1 (stereo not drawn)	-3%	-6%	-27%
CN(c1ccccc1)S(=O)(=O)c1ccccc1Br	-4%	6%	-12%
Nc1nnc(SCC(=O)NNC(=O)c2ccc(Cl)cc2)s1	3%	1%	-29%
CN(C(=O)COn1nnc2ccc(Cl)cc21)C1CCS(=O)(=O)C1 (stereo not drawn)	-3%	-1%	-15%
COc1ccc(OC)c(S(=O)(=O)N2CCN(C(=O)NC3CCCCC3)CC2)c1	-5%	6%	-10%

4 records picked at random from those above, as already listed:
SMILES	SARS PLpro yeast	RE007 growth inh	2A StopGo
CN(c1ccccc1)S(=O)(=O)c1ccccc1Br	-4%	6%	-12%
COC(=O)C1=C(c2ccc(-c3ccccc3)c(F)c2)C[C@@H]2CC[C@H]1N2C(=O)NC(C)C	3%	11%	?
COc1ccc(CCNC(=O)[C@@H](NC(N)=O)C(C)C)cc1	-1%	2%	-10%
O=C(C[N+]12CCC(CC1)C(CO)C2)c1ccc([N+](=O)[O-])cc1 (stereo not drawn)	-2%	10%	4%

(cont.)
SMILES	SARS PLpro yeast	RE007 growth inh	2A StopGo
COC(=O)c1cc(COC(=O)CNC(=O)c2cccc(C)c2)oc1C	9%	-5%	-11%
CCCn1c(N)c(N(CCOC)C(=O)C2CCCC2)c(=O)[nH]c1=O	-1%	2%	-23%
Cc1ccc(S(=O)(=O)CCC(=O)N(Cc2nnc(-c3ccc(Cl)cc3)o2)C2CC2)cc1	3%	-4%	13%
COc1ccc(OC)c(-c2csc(NC(=O)COC(=O)c3ccc(NC(=O)CC#N)cc3)n2)c1	1%	-7%	-23%
COc1ccc(C2=NOC(Cn3nc(-c4ccccc4)cc3C(=O)NCc3ccccc3OC)C2)cc1 (stereo not drawn)	3%	-5%	-10%
CCCCN(C)S(=O)(=O)c1ccc(C(=O)N(CCN(C)C)c2nc3ccc(C)cc3s2)cc1	0%	14%	5%
C[C@@H](NC(=O)Cn1ccc(N)nc1=O)c1cccc2ccccc12	3%	11%	-12%
CCOc1ccc(NS(=O)(=O)c2ccc(NC(=O)c3ccccn3)cc2)cc1	1%	-4%	6%
CCCC(C)NC(=O)CN(Cc1ccco1)S(=O)(=O)c1ccccc1 (stereo not drawn)	0%	-12%	-15%
O=[N+]([O-])c1ccccc1Oc1ccc(S(=O)(=O)N2CCOCC2)cc1	-6%	78%	?
CC(C)(C)OC(=O)N1CCC(CC2CC(c3ccccc3)=NO2)(C(=O)NCc2ccccc2)CC1 (stereo not drawn)	5%	5%	-18%
CCOC(=O)c1cc(C#N)c(=S)[nH]c1C	3%	24%	-7%
COc1ccc(C2=CC(=O)C[C@H](c3ccc(OC)c(OC)c3)C2)cc1	-8%	-7%	?
CCN(C[C@H]1N[C@@](Cc2ccccc2)(C(=O)OC)[C@H]2C(=O)N(Cc3ccccc3)C(=O)[C@@H]12)C(=O)Nc1ccc(F)cc1	-1%	4%	-12%
CC(C)c1ccc(NC(=O)CN2C(=O)NC(Cc3c[nH]c4ccccc34)C2=O)cc1 (stereo not drawn)	0%	-2%	-24%
COC(=O)C1=C(c2cccc(OCc3ccccc3)c2)C[C@@H]2CC[C@H]1N2C(=O)NCc1ccc(F)cc1	-4%	1%	-15%
Cc1ccc(CSc2ccc(S(=O)(=O)N3CCCC3)cn2)cc1	9%	3%	?
COC(=O)c1sc(NC(=O)COc2cccnc2[N+](=O)[O-])c(C(=O)OC)c1C	0%	-3%	-25%
O=C(CN1C(=O)NC2(CCCCCCC2)C1=O)Nc1c(Cl)cccc1Cl	-6%	-5%	-14%
CC(CCc1ccccc1)NC(=O)CCNC(=O)c1ccccc1Cl (stereo not drawn)	1%	10%	-12%
COc1ccc(CC(=O)Nc2cccc(C(C)=O)c2)cc1S(=O)(=O)N1CCOCC1	-3%	-6%	4%
CC(C)(C)N(Cc1ccccc1)C(=O)COC(=O)/C=C/c1ccc2c(c1)OCO2	0%	2%	?
Cc1sc2nc(CSCC(=O)Nc3cc(F)ccc3F)[nH]c(=O)c2c1C	-6%	2%	-20%
C#CCOCCOCCOCCNc1nc(N2CCN(C(=O)CCCCCCCCCCNC(=O)[C@@H](CCSC)n3cc(CCO)nn3)CC2)nc(N2CCN(C(=O)CCCCCCCCCCNC(=O)[C@H]([C@@H](C)CC)n3cc(CCCCCN)nn3)CC2)n1	-4%	7%	?
C=CCN1CC[C@]23c4c5ccc(O)c4OC2C(O)CC[C@@]3(O)[C@H]1C5 (stereo partly drawn)	1%	-7%	-25%

Some of the compounds tested (hit frequency here may not be typical).
